NPYLR7 ag: activates Aedes aegypti NPYLR7 receptor; activation, % at 10 µM; HEK293T NPYLR7/Galpha15, GCaMP6s calcium fluorescence; 0.15% of 270,000 active; in the data active = activation above about 40%;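 also: 0% = vehicle and 100% = reference agonist at the receptor; some compounds past the cut are filed as inactive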
NPYLR7 ag max-min: second read-out of NPYLR7 ag, no call of its own (marks repeat the call); activation, %; measured here: Max-Min RFU normalised activation; some inactives read as strong as hits;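 span of the calcium signal over five minutes; 0% = vehicle and 100% = native peptide agonist; compound fluorescence can raise it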
* marks the source's active call; other numbers are inactive results; & = joins results of further samples. An excerpt; rates above refer to the full screens.

SMILES	NPYLR7 ag	NPYLR7 ag max-min
Clc1nc2ccccc2cc1CN1CCCC(n2ccnc2)C1 (stereo unspecified)	2	12
C=CCn1c(C)cn2c3c(=O)n(Cc4cc(C)ccc4C)c(=O)n(C)c3nc12	6	8
Cc1noc(-c2ccc3c(c2)OCO3)c1C(=O)NCCC1(C)OCCO1	0	13
CCc1c(C)nn(-c2ccc(C(=O)NCCc3ccc(O)cc3)cc2)c1C	-5	-11
O=C(C1CCCC1)N1CCOC(CCc2ccccc2)C1 (stereo unspecified)	3	1
CN1CCN(c2onc(-c3ccccc3)c2CNCc2ccco2)CC1	30	22
NC(=O)c1cc(Cl)ccc1OS(=O)(=O)c1ccccc1F	-5	-7
CC(=O)c1cccc(OC(=O)c2ccc(Cl)cc2)c1	22	17
CCOc1c(C)cnc2c1c(=O)n(CC(N)=O)c(=O)n2C	5	4
COc1ccccc1C(=O)N1CCN(C(C(=O)NCCC(C)C)C2CCCC2)CC1 (stereo unspecified)	-7	-1
CCCCN(CC)c1nc(-c2ccc(C)cc2)nc2ccccc12	0	1
CCn1ccc(C(=O)N2CC(=O)Nc3ccccc32)n1	3	0
O=C(c1cc2ccccc2[nH]1)N1CCC(c2[nH]ncc2Cc2ccccc2)CC1	6	6
Cc1cccc2sc(C(=O)N3CCCC3)c(Cl)c12	1	-3
O=C(CSc1nnnn1-c1ccccc1)NNC(=O)c1ccc(O)cc1O	-4	-10
COc1cccc(C(CN2CCN(C(=O)c3cccc(C#N)c3)CC2)OCc2cccc(Cl)c2)c1 (stereo unspecified)	0	-11
CCn1c(C2CC(=O)N(c3c(C)cc(C)cc3C)C2)nc2ccccc21 (stereo unspecified)	4	-2
Cc1ccn(CC(=O)N2CCCC(N3CCN(c4cccc(Cl)c4)CC3)C2)n1 (stereo unspecified)	6&4	1&3
O=C1CCCCC1=CNC1CCCCC1	2	0
Cc1ccc(N(CC(=O)NCC(C)Oc2cccnc2)S(C)(=O)=O)cc1 (stereo unspecified)	-3	-7
COC(=O)C1=C(C)N(C)C(C)=C(C(=O)OC)C1c1ccccc1Cl	1	-2
CCN(CCc1nc2c(C)cccc2[nH]1)C(=O)c1ccc(=O)n(C)c1	-2	3
CC(C)Cc1ccc(C(=O)C2CCN(C(=O)Cn3cnnn3)CC2)cc1	0	21
CC(=O)c1c(C)n(-c2ccccc2C)c2ccc(O)cc12	-3	-5

Profiles from above. Screens in order: NPYLR7 ag	NPYLR7 ag max-min
CCn1c(C2CC(=O)N(c3c(C)cc(C)cc3C)C2)nc2ccccc21 (stereo unspecified) reads 4	-2
CCc1c(C)nn(-c2ccc(C(=O)NCCc3ccc(O)cc3)cc2)c1C reads -5	-11
COc1cccc(C(CN2CCN(C(=O)c3cccc(C#N)c3)CC2)OCc2cccc(Cl)c2)c1 (stereo unspecified) reads 0	-11

The listing continues.
SMILES	NPYLR7 ag	NPYLR7 ag max-min
CC(C)CN(CC(=O)N(CCc1c[nH]c2ccccc12)Cc1ccc(F)cc1)C(=O)c1cccs1	-3	4
CCn1cc(CN2CCCC(C(=O)Nc3ccc(-c4cscn4)cc3)C2)c(C)n1 (stereo unspecified)	3	1
COCCCN(Cc1ccccc1C)CC(O)c1ccccc1 (stereo unspecified)	20	27
COc1ccc2c(c1)CCc1c-2noc1-c1ccc(C)c(NC(=O)c2cc(C(C)(C)C)nn2Cc2ccccc2)c1	2	2
O=C(NCCCn1ccnc1)c1nn2c(C(F)(F)F)cc(-c3ccccc3)nc2c1Br	1	-1
CN(C(=O)C1COc2ccccc2C1)c1cc(C#N)c2ccccc2n1 (stereo unspecified)	0	18
CSc1ncccc1C(=O)N(CCN(C)C)CC1CCCN(Cc2ccccc2F)C1 (stereo unspecified)	1	-1
COc1ccc(/C=C/C(=O)OCCC(C)C)cc1	-13	-21
Fc1ccc(C=NN2CCOCC2)cc1	4	2
C=CCN(CC(=O)N(CCc1ccc(OC)c(OC)c1)Cc1ccc(C)o1)C(=O)c1ccccc1F	4	10
O=C(/C(Cl)=C/NCc1ccccn1)C(F)(F)F	0	-3
CCc1ccccc1NC(=O)Nc1ccc(N2CCCC2)c(C(=O)NC(C)c2ccccc2)c1 (stereo unspecified)	6	4

Pulled one by one from the entries so far (5):
SMILES	NPYLR7 ag	NPYLR7 ag max-min
CSc1ncccc1C(=O)N(CCN(C)C)CC1CCCN(Cc2ccccc2F)C1 (stereo unspecified)	1	-1
CN(C(=O)C1COc2ccccc2C1)c1cc(C#N)c2ccccc2n1 (stereo unspecified)	0	18
COc1ccc(/C=C/C(=O)OCCC(C)C)cc1	-13	-21
CCn1cc(CN2CCCC(C(=O)Nc3ccc(-c4cscn4)cc3)C2)c(C)n1 (stereo unspecified)	3	1
C=CCN(CC(=O)N(CCc1ccc(OC)c(OC)c1)Cc1ccc(C)o1)C(=O)c1ccccc1F	4	10

Other structures.
SMILES	NPYLR7 ag	NPYLR7 ag max-min
CCCN1CCC(N(C)CCN(CC)CC)CC1	-13	-14
COC(=O)c1cc2n(n1)CCCN(C(=O)c1snnc1C)C2	8	6
CC1(C)CC(=O)C(C=NC2CCCCCC2)=C(O)C1	16	7
O=C1NC2(CCCCCC2)C(=O)N1Cc1coc(-c2cccs2)n1	-1	-2
O=c1ccc(-c2ccc(F)cc2)nn1Cc1ccccc1	6	0
COc1cc(OC)cc(C(=O)NC(Cc2ccccc2)c2nnc(SCc3ccc(F)cc3)n2-c2ccc(C)cc2)c1 (stereo unspecified)	22	24
CNc1nc(SC(C)C(=O)Nc2ccc(Cl)c(Cl)c2)nc(N2CCOCC2)n1 (stereo unspecified)	9	7
O=C(NCc1cccs1)c1cc(-c2cccs2)on1	2	1
OCCCCCNc1ncnc2ccc(Br)cc12	2	-2
C=CCCC(=O)NCc1ccc(-c2ncc(-c3ccc(OC)cc3)[nH]2)cc1	1	12
Nc1nc(Nc2ccc(Cl)cc2)n[nH]1	1	0
Cc1ccnc(SCc2cc(=O)n3c(nc4ccccc43)[nH]2)n1	-1	-4
COc1ccc(NC(=O)Cn2ccn3nc(-c4ccc(C)cc4)cc3c2=O)cc1OC	0	-1
CCOC(=O)c1cnc(C)nc1NCc1cccc(OC)c1OC	12	24
Cc1ccn2c(NC(=O)CCC3CCCC3)c(-c3ccc(Cl)cc3)nc2c1	-3	3
C=CCOc1cc(C)nc(-c2ccccc2O)n1	12	8
CC1(C)CC(CCc2nc(=S)[nH][nH]2)C(=O)O1 (stereo unspecified)	-5	-8
COCCn1c(=O)c2c(nc3n2CCCN3c2ccc(Br)cc2)n(C)c1=O	3	-2
CCC(CO)NCc1ccc(C)s1 (stereo unspecified)	1	4
Cc1nc(SCC(=O)NC(N)=O)c2c(C)c(C)sc2n1	-5	-5
CC(C)(C)c1cc2nc(C(=O)NCc3ccco3)cc(-c3ccccc3F)n2n1	-4&15	-2&20
CCOC(=O)c1cnc2c(C#N)cccc2c1Nc1cccc(C(F)(F)F)c1	7	7
Cc1c(C)n2c3c(=O)n(C)c(=O)n(C)c3nc2n1CCCc1ccccc1	2	2
Cc1cccc(Nc2ncccc2C(=O)NCCc2cccs2)c1C	2	-3
CN(C)C(=O)CN1CCC(c2ccccc2C(=O)O)C1 (stereo unspecified)	1	-1
CC(=O)N(C)c1ccc(NC(=O)N2CCCC2Cc2cccc(F)c2)cc1 (stereo unspecified)	3	1
CC1(C(=O)Nc2nc3n(c2C#N)CCS3)CC1(Cl)Cl (stereo unspecified)	2	-4
CC(C)OC(=O)C1C(c2ccccc2)C(C(=O)O)C1c1ccccc1 (stereo unspecified)	0	-2
Cc1cc(Br)cc(C)c1NC(=O)NCc1cccnc1	0	10
Cc1c(C)c(C)c(S(=O)(=O)N2CCC(Cc3ccc(C(F)(F)F)cc3)CC2)c(C)c1C	14	5
Cc1ccc(F)cc1NC(=O)C(C)NC1CCC2(CCNCC2)CC1 (stereo unspecified)	23	8
O=C(CSc1nc2ccccc2c(=O)n1-c1cccnc1)NC1CCCCC1	15	5
CC1CCC(C(N)=O)CN1C(=O)c1ccc(Sc2ccccn2)cc1 (stereo unspecified)	8&6	5&5
COC(=O)c1cccc(C2CC(=O)Nc3cc(O)c(C)cc32)n1 (stereo unspecified)	-5	-7
CC(=O)NCC(=O)NC1(C(=O)NC2CCCCC2)CCCCC1	2	0
COc1ccc(O)c(C(=O)c2cnc3cc4c(cc3c2)OCO4)c1	-5	6

Given with two lines to a compound: entries from further up
Under each structure – NPYLR7 ag, NPYLR7 ag max-min
> COC(=O)c1cccc(C2CC(=O)Nc3cc(O)c(C)cc32)n1 (stereo unspecified)
 : -5, -7
> CCOc1c(C)cnc2c1c(=O)n(CC(N)=O)c(=O)n2C
 : 5, 4
> Cc1ccc(F)cc1NC(=O)C(C)NC1CCC2(CCNCC2)CC1 (stereo unspecified)
 : 23, 8
> CCCN1CCC(N(C)CCN(CC)CC)CC1
 : -13, -14
> O=c1ccc(-c2ccc(F)cc2)nn1Cc1ccccc1
 : 6, 0

Continued:
SMILES	NPYLR7 ag	NPYLR7 ag max-min
CCCCc1ccc(S(=O)(=O)Nc2cc(Cl)ccc2C(=O)NCCc2ccc(OC)cc2)cc1	6	1
O=C(Cn1c2ccccc2c2ncn(Cc3ccccc3)c(=O)c21)NCCC1=CCCCC1	2	2
CCOC(=O)c1cc(-c2ccc(OC)cc2)n(C2CCN(C(=O)COCc3ccccc3)CC2)n1	22	20
CN(C)c1ccc(C(=O)N2CCN(c3nc4nccc(-c5ccc(Cl)c(Cl)c5)n4n3)CC2)cc1	4	2
O=c1c2nnn(-c3ccc(F)cc3)c2ncn1Cc1ccc(Cl)cc1	4	8
O=C(NCCn1nc(-c2cccnc2)ccc1=O)c1ccccc1	7	-4
COc1cccc(C(=O)N2CCC3(CC2)NC(=O)c2c(Cl)cccc2N3)c1	-3	0
Cc1ccc(C(=O)Nc2cc(C(C)(C)C)nn2C)cc1	18	13
Cc1cc(-c2cc3c(n(Cc4cccnc4)c2=O)CCN(C(=O)c2ccc4c(c2)OCO4)C3)ccc1F	16	4
Cc1ccc(-c2nc3ccccn3c2NC(=O)C(C)Cl)cc1 (stereo unspecified)	-5	-4
Cc1nn(C)c(C)c1C(C)NC(=O)C(=O)c1cccs1 (stereo unspecified)	4	2
CN(c1ccc(CNC(=O)c2c[nH]c(=O)c(Cl)c2)cc1)C1CCCCC1	14	11
CCOc1c(Br)cc(Cl)cc1NC(=O)CCNC(=O)C(C)(C)C	1	0
CCOC(=NCc1ccc2c(c1)OCO2)NC(=O)c1cccc(C(F)(F)F)c1	8	16
COc1ccc(C(=O)Nc2ccc(Cl)c(-c3nc4cc(C)c(C)cc4o3)c2)cc1	6	14
CC(=O)NCCCc1ccc(-c2csc(NCc3ccco3)n2)cc1	19	8
CC(CC(=O)N1CCC(c2nc(-c3ccc(Cl)cc3F)no2)CC1)CC(C)(C)C (stereo unspecified)	9	6
C#CCn1c(O)c(N=NC(=O)CNC(=O)c2ccncc2)c2ccccc21	-3	-8
CCCn1c(CCNC(=O)C(C)(C)C)nc2ccccc21	-5	1
Cc1[nH]ncc1C(=O)Nc1cc(C(C)(C)C)[nH]n1	3	3
CCOC(=O)c1cnc(-c2ccc(OC)cc2)nc1NCCCN(C)c1ccccc1	6	-1
C=CCCC(O)(CCC=C)c1ccc(CN(CCOC)Cc2ccc3c(c2)OCO3)o1	-3	-2
CC(c1cccs1)N(C)Cc1cn2cc(Cl)cc(Cl)c2n1 (stereo unspecified)	7	3
Cc1cc(C)c(S(=O)(=O)N2CCN(Cc3cc(=O)oc4cc(C)c(C)cc34)CC2)c(C)c1	-1	4
COc1ccc(-c2cnc3ncnn3c2N2CCN(S(=O)(=O)c3ccc(Cl)cc3)CC2)cc1	30	17
Cc1cccc(N=P(N2CCCCC2)(N2CCCCC2)C(C)(C)C)c1C	-3	-5
N#CCc1nc(-c2ccccc2)no1	-2	-2
C=CCSc1nnc(NC(=O)c2cccc(Cl)c2)s1	-1	8
Cc1nc(CC(=O)N(Cc2ccc(C(=O)NC3CC3)cc2)C2CC2)sc1C	9	6
CC(C)c1ccc(C(=O)N2CCn3nc(C(=O)N4CCCC4)cc3C2)c(=O)[nH]1	17	5
O=C(C[C@@H]1O[C@H](CNC(=O)c2ccccc2)[C@@H](O)[C@H]1O)NCc1ccc(F)cc1	-9	-14
COc1ccc(C(=O)Nc2ccc(-c3c(-c4cccc(OC)c4)nn(-c4ccccc4)c3OC(C)=O)cc2)cc1	-1	5
COc1cn(CC(=O)Nc2ccc(C(F)(F)F)cc2)c(CSc2nc(C)cs2)cc1=O	-6	-9
CC1=NN(c2ccc(Br)cc2)C(=O)/C1=C\c1ccc(-c2ccc(Cl)c(C(=O)O)c2)o1	-2	5
Cc1cc(O)c(CN(C)C2CCS(=O)(=O)C2)cc1C(C)C (stereo unspecified)	10&10	4&4
N#Cc1nc(-c2ccc(COc3ccc(Cl)cc3)o2)oc1NCc1ccco1	1	11
O=C1C2C(c3ccccc3)OC3(C(=O)c4ccccc4C3=O)C2C(=O)N1c1cccc2ccccc12 (stereo unspecified)	0	0
COc1ccccc1-n1c(SCc2nc(C(=O)O)cs2)nnc1-c1ccncc1	12	15
CCOc1ccccc1C(=O)Nc1c(C)nc2ccc(C)cn2c1=O	4	1
CC(=O)N1CCN(c2ccc(F)c(Cl)c2)C(=O)C1C (stereo unspecified)	2	9
CN(Cc1c(F)cccc1Cl)c1cncc(-n2cccn2)n1	3	2
CC(C)CNC(=O)C1(C)CCCN1C(=O)COCc1ccccc1 (stereo unspecified)	5	1
N#Cc1ccc(Sc2nnnn2CCc2cccs2)nc1	-3	-6
COc1cccc(Cn2nc3n(CCC(=O)NC4CCCCC4)c(=O)c4ccccc4n3c2=O)c1	-3	0

Some of these compounds in order of count of non-hydrogen atoms, lowest first.
SMILES	NPYLR7 ag	NPYLR7 ag max-min
COc1ccccc1-n1c(SCc2nc(C(=O)O)cs2)nnc1-c1ccncc1	12	15
COc1cccc(Cn2nc3n(CCC(=O)NC4CCCCC4)c(=O)c4ccccc4n3c2=O)c1	-3	0
O=C1C2C(c3ccccc3)OC3(C(=O)c4ccccc4C3=O)C2C(=O)N1c1cccc2ccccc12 (stereo unspecified)	0	0
